Compound activity deposited in PubChem by Broad Institute.
PD-1 reversal = reversal of PD-1 mediated T-cell inhibition; 29,000 tested, under 10 active; activation, % (test concentration not listed); primary human CD4 T cells, PD-L1 beads, CellTiter-Glo 96 h;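 active = replicate mean of 50% or more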;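 also: 0% = median vehicle wells and 100% = positive control; 100 nL library stock added to about 50 µL; numbers are from one replicate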
YB-1 expression = YB-1 expression inhibition. U2OS, qRT-PCR YB-1 vs CDIP delta delta Cp, 16 h; active compounds read high; zero = DMSO, each unit about twofold. delta delta Cp (YB-1 minus CDIP) (test concentration not listed). hit rate 0.37% among 30,000. AID 434959;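 active = delta delta Cp rounded down to an integer at or above 3, about 3 SD of DMSO wells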;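 also: higher means less YB-1 transcript or more CDIP transcript relative to DMSO; stock transfer was 100 nL into about 100 µL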
Shh pathway inh = Sonic Hedgehog pathway inhibition; Shh-LIGHT2 Gli-luciferase reporter, 30 h; inhibition, % (test concentration not listed); hit rate 2.1% among 22,000;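 active = replicate mean of 65% or more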;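 also: pathway switched on by Shh-conditioned medium diluted 1 in 25 in low serum; 100 nL library stock added to about 40 µL; 0% = median of neutral wells and 100% = positive control level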
MITF inh = inhibitors of MITF; AID 2240; hit rate 0.28% among 37,000; TRPM1 promoter luciferase, luminescence, 24 h; inhibition, % (test concentration not listed);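 active = most replicates at 85% or more, or half of them and the mean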;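 also: human melanocyte line stably carrying TRPM1 promoter luciferase reporter; 0% = vehicle wells and 100% = a positive control; the first replicate is given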
Numbers without * were called inactive; / = not tested or not shown.

Start of the data: the first 6 records as a preview:
SMILES	PD-1 reversal	YB-1 expression	Shh pathway inh	MITF inh
O=C(CSc1nnc(-c2ccc(Cl)cc2)o1)c1cccc([N+](=O)[O-])c1	-1.9	/	/	-21
O=C(c1cccs1)n1nc(-c2ccc(Cl)cc2)nc1NCc1ccco1	1.9	/	/	-73
COc1ccc(NC(=O)C2CCCN(S(=O)(=O)c3ccc(C)cc3)C2)cc1OC (stereo not drawn)	1.2	/	/	20
Cc1noc(C)c1NC(=O)N(C)C[C@H]1Oc2ccc(NC(=O)C3CCCCC3)cc2CC(=O)N([C@@H](C)CO)C[C@H]1C	/	-0.43	/	-3
CCn1c(SCC(=O)c2cccc([N+](=O)[O-])c2)nnc1-c1ccccc1F	-1.8	/	/	-21
Cc1nnc(SCC(=O)Nc2cc(Cl)cc(Cl)c2)n1-c1ccccc1	1.4	/	/	-4

The list itself, repeating the preview:
SMILES	PD-1 reversal	YB-1 expression	Shh pathway inh	MITF inh
O=C(CSc1nnc(-c2ccc(Cl)cc2)o1)c1cccc([N+](=O)[O-])c1	-1.9	/	/	-21
O=C(c1cccs1)n1nc(-c2ccc(Cl)cc2)nc1NCc1ccco1	1.9	/	/	-73
COc1ccc(NC(=O)C2CCCN(S(=O)(=O)c3ccc(C)cc3)C2)cc1OC (stereo not drawn)	1.2	/	/	20
Cc1noc(C)c1NC(=O)N(C)C[C@H]1Oc2ccc(NC(=O)C3CCCCC3)cc2CC(=O)N([C@@H](C)CO)C[C@H]1C	/	-0.43	/	-3
CCn1c(SCC(=O)c2cccc([N+](=O)[O-])c2)nnc1-c1ccccc1F	-1.8	/	/	-21
Cc1nnc(SCC(=O)Nc2cc(Cl)cc(Cl)c2)n1-c1ccccc1	1.4	/	/	-4
CC(C)NC(=O)Nc1ccc2c(c1)CC(=O)N([C@@H](C)CO)C[C@H](C)[C@H](CN(C)Cc1ccncc1)O2	2.7	0.11	-25	2
CC(C)NC(=O)Nc1ccc2c(c1)C(=O)N([C@H](C)CO)C[C@H](C)[C@@H](CN(C)C(=O)Nc1cccc3ccccc13)OCCCC[C@@H](C)O2	-0.4	0.26	-24	-3
C[C@H](CO)N1C[C@H](C)[C@H](CN(C)S(=O)(=O)c2ccccc2)Oc2c(NC(=O)Nc3ccc(C(F)(F)F)cc3)cccc2C1=O	0.0	-0.11	-30	0
Cc1ccc(-c2csc(Cc3nc(-c4cc5ccccc5oc4=O)cs3)n2)cc1	1.6	/	/	52
C[C@@H]1CN([C@@H](C)CO)C(=O)c2cccc(NC(=O)c3ccc(-c4nccs4)cc3)c2O[C@H]1CN(C)S(=O)(=O)c1ccc(Cl)cc1	-0.2	-0.051	39	-2
C[C@H]1CN([C@@H](C)CO)C(=O)c2cc(NC(=O)CCCN(C)C)ccc2O[C@H]1CN(C)S(=O)(=O)c1ccc(Cl)cc1	/	0.021	-50	-9

Further structures follow:
SMILES	PD-1 reversal	YB-1 expression	Shh pathway inh	MITF inh
C[C@@H]1CN([C@H](C)CO)C(=O)c2cc(NC(=O)Nc3ccc(C(F)(F)F)cc3)ccc2O[C@@H]1CN(C)CC1CCCCC1	-6.1	0.11	/	3
COc1ccc(NC(=O)N(C)C[C@H]2Oc3c(cccc3N(C)C)C(=O)N([C@@H](C)CO)C[C@H]2C)cc1	0.3	0.18	-2	-8
CCOC(=O)CSc1ncnc2c1sc1nc3c(cc12)COC(C)(C)C3	-0.2	/	/	29
Cc1noc(C)c1NC(=O)N(C)C[C@@H]1Oc2ccc(NC(=O)Cn3cnnn3)cc2C(=O)N([C@@H](C)CO)C[C@H]1C	0.0	-0.51	11	-6
C[C@H]1CN([C@@H](C)CO)C(=O)c2cccc(NC(=O)C3CC3)c2O[C@@H]1CN(C)Cc1ccc(Cl)c(Cl)c1	/	-0.42	-22	-11
Cc1noc(C)c1NC(=O)Nc1ccc2c(c1)CC(=O)N([C@@H](C)CO)C[C@H](C)[C@H](CN(C)Cc1ccc(C(F)(F)F)cc1)O2	1.6	0.039	-4	-9
O=C(Nc1sc2c(c1C(=O)NCc1cccnc1)CCCCC2)c1ccccc1	-1.5	/	/	-99
C[C@@H]1CN([C@H](C)CO)C(=O)Cc2cc(NC(=O)CCN3CCOCC3)ccc2O[C@@H]1CN(C)Cc1ccc(C(=O)Nc2ccccc2N)cc1	-0.2	0.19	/	0
C[C@@H]1CN([C@@H](C)CO)C(=O)c2cc(NS(=O)(=O)c3ccccc3)ccc2O[C@@H]1CN(C)S(=O)(=O)c1ccc(Cl)cc1	-1.2	-0.15	20	-4
COc1ccc(NC(=O)Nc2cccc3c2O[C@H](CN(C)C(=O)Nc2c(C)noc2C)[C@@H](C)CN([C@@H](C)CO)C3=O)cc1	0.1	-0.4	-21	-9
C[C@@H]1CN([C@@H](C)CO)C(=O)c2cc(NC(=O)NC3CCCCC3)ccc2O[C@H]1CN(C)C(=O)Nc1ccc(C(F)(F)F)cc1	-1.8	0.07	47	17
C[C@H]1CN([C@@H](C)CO)C(=O)c2cccc(NS(=O)(=O)c3cn(C)cn3)c2O[C@@H]1CN(C)CC1CCCCC1	1.9	0.081	-7	-8

More compounds follow:
SMILES	PD-1 reversal	YB-1 expression	Shh pathway inh	MITF inh
CNC[C@@H]1Oc2c(NS(=O)(=O)c3ccc(Cl)cc3)cccc2C(=O)N([C@H](C)CO)C[C@@H]1C	-1.0	0.26	9	-13
C[C@@H]1CN([C@H](C)CO)C(=O)c2cc(NS(=O)(=O)c3ccccc3)ccc2O[C@H]1CN(C)C(=O)Nc1cccc2ccccc12	/	0.048	/	-4
C[C@@H]1CN([C@@H](C)CO)C(=O)c2cccc(NC(=O)Nc3ccc(F)cc3)c2O[C@H]1CN(C)Cc1ccc2c(c1)OCO2	-7.1	0.24	-34	38
COc1ccccc1NC(=O)CNC(=O)c1ccc([N+](=O)[O-])cc1	1.9	/	/	-4
CC(Oc1ccc2ccccc2c1)C(=O)NN (stereo not drawn)	1.2	-0.57	/	-10
CCOC(=O)c1ccc(NC(=O)CN2c3cccc4cccc(c34)S2(=O)=O)cc1	-0.7	/	/	-1
CC(C)C[C@@H](/C=C/S(C)(=O)=O)NC(=O)[C@H](CC(C)C)NC(=O)[C@H](CC(C)C)NC(=O)OCc1ccccc1	-53	-0.44	47	75
Cc1noc(C)c1NC(=O)Nc1ccc2c(c1)C(=O)N([C@H](C)CO)C[C@H](C)[C@@H](CN(C)Cc1ccc(C(F)(F)F)cc1)OCCCC[C@@H](C)O2	1.5	0.21	/	-14
C[C@@H]1CN([C@@H](C)CO)C(=O)c2cc(NC(=O)C3CC3)ccc2O[C@H]1CN(C)S(=O)(=O)c1cccs1	-3.4	-0.17	8	-9
COc1ccc(S(=O)(=O)N(C)C[C@@H]2Oc3c(NC(=O)c4nc5ccccc5s4)cccc3C(=O)N([C@@H](C)CO)C[C@@H]2C)cc1	/	-0.1	-15	1
Cn1c(Cc2cccs2)nnc1SCC(=O)N1CCc2ccccc21	0.4	/	/	0
Clc1ccc(Nc2ccc(-c3ccccc3)nn2)cc1	0.1	-0.81	/	-65

Continued:
Values run as follows: PD-1 reversal	YB-1 expression	Shh pathway inh	MITF inh
COc1cc(C2NC(=O)NC(c3ccccc3)=C2C(C)=O)ccc1OCC(=O)O (stereo not drawn)
  -2.4	/	/	-1
COC(=O)c1ccc(NC(=O)CN(c2ccc(C)cc2C)S(C)(=O)=O)cc1
  -1.3	/	/	-24
COc1ccc(S(=O)(=O)N(C)C[C@@H]2Oc3ccc(NC(=O)Nc4ccc(F)cc4)cc3CC(=O)N([C@H](C)CO)C[C@H]2C)cc1
  -0.3	0.2	-6	10
C[C@@H]1CN([C@@H](C)CO)C(=O)c2cccc(NC(=O)CCCCCC(=O)Nc3ccccc3N)c2O[C@H]1CN(C)CC1CCCCC1
  -1.4	-0.49	/	64
COc1ccc(NC(=O)Nc2ccc3c(c2)C(=O)N([C@@H](C)CO)C[C@@H](C)[C@H](CN(C)Cc2ccc(Cl)c(Cl)c2)O3)cc1
  1.0	-0.33	31	8
C[C@@H]1CN([C@@H](C)CO)C(=O)Cc2cc(NC(=O)Nc3cccc4ccccc34)ccc2O[C@@H]1CN(C)CC1CCCCC1
  /	0.088	15	24
CC(C)(C)c1nc2scc(-c3ccccc3)c2c(=O)o1
  1.3	-0.17	-13	8
C[C@H]1CN([C@@H](C)CO)C(=O)Cc2cc(N(C)C)ccc2O[C@H]1CN(C)Cc1ccc(C(=O)Nc2ccccc2N)cc1
  -0.6	-0.14	/	31
CCn1c(SCC(=O)Nc2ccc([N+](=O)[O-])cc2C)nnc1-c1ccc(Br)cc1
  0.6	/	/	7
C[C@H](CO)N1C[C@H](C)[C@H](CN(C)CC2CC2)Oc2ccc(NS(=O)(=O)c3ccc(F)cc3)cc2C1=O
  -1.4	-0.041	/	0
Cc1ccc(S(=O)(=O)Nc2ccc3c(c2)C(=O)N([C@H](C)CO)C[C@@H](C)[C@H](CN(C)Cc2ccncc2)O3)cc1
  -0.1	0.013	-6	10
C[C@@H]1CN([C@H](C)CO)C(=O)c2cccc(NS(=O)(=O)c3cccs3)c2O[C@H]1CN(C)S(=O)(=O)c1ccc(F)cc1
  /	-0.31	-4	6
CC(C)NC(=O)N(C)C[C@@H]1Oc2ccc(NC(=O)Nc3ccc4c(c3)OCO4)cc2CC(=O)N([C@H](C)CO)C[C@H]1C
  1.1	0.15	-26	-2
C[C@@H]1CN([C@H](C)CO)C(=O)Cc2cc(NC(=O)Nc3ccc4c(c3)OCO4)ccc2O[C@@H]1CN(C)S(=O)(=O)c1cn(C)cn1
  1.0	-0.37	-21	4
COC(=O)c1ccccc1NC(=O)c1ccc(N(C)S(=O)(=O)c2ccc(OC)c(OC)c2)cc1
  -1.5	/	/	14
C[C@@H]1CN([C@H](C)CO)C(=O)c2cc(NS(C)(=O)=O)ccc2O[C@@H]1CN(C)CC1CCCCC1
  1.0	-0.81	/	0
CCOc1ccc(NC(=O)C(C)O)c([N+](=O)[O-])c1 (stereo not drawn)
  -0.2	/	/	-83
COc1ccc(NC(=O)N(C)C[C@@H]2Oc3ccc(NC(=O)Cc4ccccc4)cc3C(=O)N([C@@H](C)CO)C[C@@H]2C)cc1
  0.0	-0.39	/	-5
CCOC(=O)c1ccc(CNS(=O)(=O)c2c(C)ccc3nsnc23)o1
  2.7	/	/	9
COc1ccc(Cl)cc1NC(=O)CC(C(=O)O)N1CCNCC1 (stereo not drawn)
  1.2	/	/	9
COc1ccc(S(=O)(=O)N(C)C[C@@H]2Oc3ccc(NC(=O)C4CC4)cc3C(=O)N([C@H](C)CO)C[C@@H]2C)cc1
  0.0	0.0095	-4	-7
C[C@H]1CN([C@@H](C)CO)C(=O)c2cc(NC(=O)CCCN(C)C)ccc2O[C@@H]1CN(C)S(=O)(=O)c1ccc(F)cc1
  0.9	0.23	-1	5
CCC(C)Sc1n[nH]c(=S)s1 (stereo not drawn)
  -1.5	-0.3	22	-6
CNC[C@@H]1Oc2ccc(NC(=O)Nc3ccc(F)cc3)cc2C(=O)N([C@@H](C)CO)C[C@@H]1C
  0.3	0.058	-45	-13
C[C@@H]1CN([C@H](C)CO)C(=O)c2cccc(N(C)C)c2O[C@@H]1CN(C)C(=O)Nc1ccccc1
  /	0.22	-23	-9
COc1ccc(S(=O)(=O)N(C)C[C@H]2Oc3ccc(NC(=O)NC4CCCCC4)cc3C(=O)N([C@H](C)CO)C[C@H]2C)cc1
  0.1	0.11	/	-17
COc1ccc(S(=O)(=O)N(C)C[C@@H]2Oc3ccc(NC(=O)Nc4ccc(F)cc4)cc3C(=O)N([C@@H](C)CO)C[C@H]2C)cc1
  -3.5	-0.51	-31	-41
NS(=O)(=O)c1cc2c(cc1Cl)NC(C(Cl)Cl)NS2(=O)=O (stereo not drawn)
  3.6	/	-102	2
Cc1noc(C)c1S(=O)(=O)Nc1ccc2c(c1)CC(=O)N([C@H](C)CO)C[C@@H](C)[C@H](CN(C)S(=O)(=O)c1ccc(Cl)cc1)O2
  0.4	0.14	-2	-1
COc1ccc(S(=O)(=O)N(C)CC(=O)Nc2ccc(Br)cc2F)cc1Cl
  1.3	/	/	18

Next part:
Values run as follows: PD-1 reversal	YB-1 expression	Shh pathway inh	MITF inh
NC(=S)c1cnn2c(C(F)(F)F)cc(C(F)(F)F)nc12
  1.0	9.5*	-20	7
S=c1[nH]nc(Cc2ccsc2)n1Cc1ccccc1
  0.7	-0.21	5	2
c1ccc(Nc2ccc(-n3ccnc3)nn2)cc1
  1.7	-0.24	/	-25
CCc1ccc(OCC(=O)Nc2ccccc2-c2nc3ccccc3s2)cc1
  -1.0	/	/	-36
COc1ccc(NC(=O)CSc2ncccn2)cc1Cl
  2.5	/	/	-35
C[C@H]1CN([C@@H](C)CO)C(=O)Cc2cc(NC(=O)Cn3cnnn3)ccc2O[C@H]1CN(C)C(=O)Nc1ccc2c(c1)OCO2
  0.7	0.18	-46	7

These rows are one share of the data. The share of hits here may be higher or lower than overall.
